# Rango complex inh: Rango-importin beta binding inhibition; Q14974; Rango CFP/YFP FRET sensor + importin beta, 45 min; Potency, µM (top dose mostly 92.2 µM), without a hit: top-dose inhibition of complex formation; actives 0.031% (n = 340,000); active = rising FRET ratio curve, often small or poorly fitted; inconclusive = mostly compound fluorescence or quenching in the first reads; inactive = flat curves in all reads;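 note: potency is the fitted concentration of half-maximal effect; 0% = DMSO wells and 100% = buffer wells lacking importin beta; nearly all actives have a fitted effect of over 15% in size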
#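 FRET biosensor Rango (snurportin 1 IBB between N-terminal EYFP and C-terminal Cerulean), 50 nM in PBS/1 mM DTT/0.02% Tween-20/0.1% BSA, preincubated 5 min RT with compound; 0.125 microM importin beta added, 45 min RT, CFP/YFP FRET ratio read.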
# miR-21 reporter: miR-21 reporter, rising signal; HeLa miR-21 FLuc reporter, luciferase, 48 h; Potency, µM (top dose mostly 38.3 µM), for inactives: at the highest dose reporter change, positive = more light; 340,000 tested, under 10 active; AID 2288; active = well fitted rising curve with a large enough effect; inconclusive = small, poorly fitted or top-dose-only effect; inactive = no such curve, though single readings can be large or run the other way;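 note: % of control where 0% means no effect; miR-21 action dims this reporter so a rising signal means less miR-21 action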
#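 HeLa miR-21-FLuc reporter line, endogenous miR-21; 2000 cells/well in DMEM/10% FBS; compound titration up to ~40uM final, 48 h, 37 degree Celsius; luciferase detection reagent, 15 min lysis, CCD luminescence.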
# Rango release inh: inhibitors of RanGTP-induced Rango-importin beta complex dissociation; Biochemical FRET Rango-importin beta, RanGTP-induced dissociation; Potency, µM (series often up to 46.1 µM), without a hit: top-dose activity change, negative = inhibition; actives 0.071% (n = 340,000); AID 540253; active means falling FRET ratio curve, often poorly fitted, with flat reads before Ran was added; inconclusive means other falling curves, or compound fluorescence or quenching; inactive means flat or rising ratio curve;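 note: potency is the fitted concentration of half-maximal effect; % of control where 0% means no effect; nearly all actives have a fitted effect of over 45% in size; -100% = wells without RanGTP and RCC1; the record marks most hits as doubtful in a second field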
#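 Compounds sat 5 min at room temperature with 0.1 uM Rango biosensor plus 0.25 uM importin beta, then FRET pre-read. RanGTP-RCC1 (0.6 uM Ran, 2mM GTP, 0.2 uM RCC1) added for 45 min, and the CFP/YFP post-read measured blocked complex dissociation.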
# GLA inh pH 4.5: inhibitors of human alpha-galactosidase A at pH 4.5 | purified enzyme, 4-MU-alpha-Gal fluorescence, pH 4.5 | activity change, negative = inhibition, % at 105 µM | P06280 | 230,000 tested, under 10 active | AID 1467; inconclusive = small, poorly fitted or top-dose-only inhibition, or a rising curve; inactive = flat fitted curve, though single readings scatter; no compound was filed as active;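 note: 0% = full activity with enzyme and -100% = basal without enzyme; dose as in the result columns while the protocol names 77 µM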
# Target sequence (P06280 whole entry, looked up): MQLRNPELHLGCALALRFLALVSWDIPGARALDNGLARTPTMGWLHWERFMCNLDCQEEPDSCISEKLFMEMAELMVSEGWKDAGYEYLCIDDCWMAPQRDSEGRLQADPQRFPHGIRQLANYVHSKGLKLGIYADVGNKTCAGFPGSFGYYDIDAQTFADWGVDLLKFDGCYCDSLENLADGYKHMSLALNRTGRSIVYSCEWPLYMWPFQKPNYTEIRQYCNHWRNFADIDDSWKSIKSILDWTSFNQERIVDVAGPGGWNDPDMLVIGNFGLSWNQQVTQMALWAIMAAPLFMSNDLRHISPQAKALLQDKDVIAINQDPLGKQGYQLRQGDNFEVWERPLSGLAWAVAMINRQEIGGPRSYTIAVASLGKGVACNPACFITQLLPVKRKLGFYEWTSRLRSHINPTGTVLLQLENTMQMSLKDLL
# An asterisk follows results filed as active; ? = inconclusive; nt = no result given; & = joins results of further samples. The list is partial; the hit share may differ from the screen's.
# Sequence of screens: Rango complex inh, miR-21 reporter, Rango release inh, GLA inh pH 4.5
COC(=O)C1=CNC=C(C(=O)OC)C1c1cccc(OC)c1
    ?, -5%, ?, ?
CCOc1ccc(S(=O)(=O)N2CCc3ccccc3C2)cc1
    2.2%, -4%, -2%, -4
O=C(N[C@@H](Cc1ccccc1)C(=O)OCc1ccccc1)c1ccco1
    -4.7%, nt, 1%, nt
CCCCOc1ccc(C2CCC(C(C)=O)C(C)C2)cc1 (stereo unspecified)
    0.4%, -42%, 39%, -5
CCN(CC)S(=O)(=O)c1ccc(C)c(NC(=O)CN(C)C)c1
    -0.6%, -3%, 2%, 1
CC(=O)NCc1ccc(-c2csc(NC(=O)CCCc3nc4ccccc4c(=O)[nH]3)n2)cc1
    -0.3%, nt, -3%, nt
O=C(NCCSc1ccc(Cl)cc1)c1ccc(CN2CCOCC2)cc1
    2.9%, 10%, -14%, -6
Cc1ccc(-n2nc(C)c3c2OC(N)=C(C#N)C3c2ccccc2F)cc1 (stereo unspecified)
    -2.0%, 16%, 1%, 3
O=C(OCCOc1ccc(Cl)cc1)c1cc(S(=O)(=O)N2CCCCC2)ccc1N1CCOCC1
    -0.2%, nt, 2%, nt
CC(C)CCC(CCN1CCCC1)c1ccc2c(c1)OCO2 (stereo unspecified)
    0.6%, 1%, 3%, -3
Nc1c(N(C(=O)Nc2ccc(Cl)c(Cl)c2)C2CCCC2)c(=O)[nH]c(=O)n1Cc1ccccc1
    4.2%, -4%, 3%, -2
CCOC(=O)c1oc2ccc(S(=O)(=O)Nc3ccc4c(c3)n(C)c(=O)n4C)cc2c1C
    2.0%, 19%, 7%, -3
COC(=O)C1=C(O)/C(=C\c2cc(C)n(-c3ccccc3F)c2C)N=C1C
    ?, -7%, ?, -6
COc1ccc(S(N)(=O)=O)cc1C(=O)OCC(=O)Nc1sccc1C#N
    4.0%, nt, -15%, nt
COC(=O)c1c(NC(=O)c2ccc([N+](=O)[O-])o2)sc2c1CCN(C(C)C)C2
    ?, 25%, ?, nt
COC(=O)CSc1nc2cc(OC)ccc2n1C
    4.0%, -7%, 7%, 3
CCOC(=O)C1C(=O)OC(C)(C)C1C(CC)C(=O)c1c(C)cc(C)cc1C (stereo unspecified)
    -2.1%, 9%, 0%, 0
COc1ccc(OCCNC(=O)c2cccc(Oc3ccc(C(F)(F)F)cc3[N+](=O)[O-])c2)cc1
    -5.7%, 17%, 11%, -10
Cc1cccc(NC(=O)CN2C(=O)NC(C)(c3ccc4c(c3)OCO4)C2=O)c1 (stereo unspecified)
    2.2%, 0%, 22%, -9
O=S(=O)(c1ccc(N=C2NN=C(c3cc(F)ccc3F)CS2)cc1)N1CCOCC1
    0.0%, 29%, -8%, 1
O=C(Nc1ccccc1C(F)(F)F)C(O)(c1ccccc1)C1CCCCC1 (stereo unspecified)
    -1.4%, nt, 17%, nt
O=C(c1cccc(N2CCCC2=O)c1)N1CCN(c2ccccc2)CC1
    -0.7%, -6%, -9%, 5
COC(=O)C1=C(C)OC(N)=C(C#N)C1c1cc2cc(C)ccc2nc1Cl (stereo unspecified)
    1.6%, -14%, -1%, 9
CCOC(=O)C1CCCN(c2c(NCCc3ccc(Cl)cc3)c(=O)c2=O)C1 (stereo unspecified)
    0.9%, 4%, -4%, -5
Cc1ccc(C(=O)NCCNC(=O)Cc2ccccc2)cn1
    1.0%, -1%, 5%, nt
COc1ccccc1NC(=S)NCCC(c1ccccc1)c1ccccc1
    -3.3%, 1%, 0%, -27
COc1ccccc1-c1ccc(NC2CCCCC2)nn1
    -2.0%, -75%, -2%, 4
Cc1cc(C)n(S(=O)(=O)c2ccc(C(C)(C)C)cc2)n1
    0.0%, -6%, 5%, -3
CCCCNC(=O)Nc1nc2ccccc2s1
    -0.1%, -48%, 2%, 2
COc1ccc([N+](=O)[O-])cc1N(CC(O)Cn1nnc2ccccc21)S(=O)(=O)c1ccc(C)cc1 (stereo unspecified)
    3.4%, 6%, 2%, -6

# Five entries already listed, arranged by their value in Rango complex inh, high to low.
# Sequence of screens: Rango complex inh, miR-21 reporter, Rango release inh, GLA inh pH 4.5
COc1ccc([N+](=O)[O-])cc1N(CC(O)Cn1nnc2ccccc21)S(=O)(=O)c1ccc(C)cc1 (stereo unspecified)
    3.4%, 6%, 2%, -6
Cc1ccc(C(=O)NCCNC(=O)Cc2ccccc2)cn1
    1.0%, -1%, 5%, nt
Cc1cc(C)n(S(=O)(=O)c2ccc(C(C)(C)C)cc2)n1
    0.0%, -6%, 5%, -3
CCCCNC(=O)Nc1nc2ccccc2s1
    -0.1%, -48%, 2%, 2
COc1ccc(OCCNC(=O)c2cccc(Oc3ccc(C(F)(F)F)cc3[N+](=O)[O-])c2)cc1
    -5.7%, 17%, 11%, -10

# Next entries.
# Sequence of screens: Rango complex inh, miR-21 reporter, Rango release inh, GLA inh pH 4.5
Oc1ccc(Br)cc1C=Nc1ccc(Cl)cc1
    ?, -1%, 12%, 7
CCc1cc(=O)oc2cc(OCC(=O)N3CCC(C(N)=O)CC3)ccc12
    2.8%, 5%, 0%, nt
C[C@@H]1CN([C@@H](C)CO)C(=O)Cc2cc(NC(=O)Nc3ccc(F)cc3)ccc2O[C@@H]1CN(C)Cc1ccc(Cl)c(Cl)c1
    0.0%, nt, -12%, nt
O=C(CC(=O)c1c(F)cccc1Cl)c1ccccc1O
    1.6%, 10%, -8%, nt
COc1ccc(NC(=O)CSc2nc(O)cc(=O)[nH]2)c(OC)c1
    5.0%, 2%, 7%, 5
COc1cc(OC)cc(-c2sc3ccc(OC)cc3c2-c2ccc(OCCN3CCCCC3)cc2)c1
    12%, nt, 0%, nt
CC(=O)Nc1ccc2nc3ccccc3nc2c1
    ?, -38%, ?, -1
CC1CCN(C(c2cccs2)c2nnnn2Cc2ccccc2)CC1 (stereo unspecified)
    -0.4%, 1%, -4%, -10
N#CCCCn1c(-c2ccccc2)noc1=O
    -0.7%, 0%, 14%, -6
CCOc1ccc(S(=O)(=O)Nc2c(C)n(C)n(-c3ccccc3)c2=O)cc1
    -1.2%, 0%, -22%, nt
CCOC(=O)c1[nH]c2ccc(F)cc2c1NC(=O)CN1CCN(C/C=C/c2ccccc2)CC1
    3.6%, 22%, 1%, 6
CC(=O)Nc1ccc(S(=O)(=O)NCCNC(=O)c2ccccc2F)cc1
    8.5%, 3%, -4%, -1
CCCn1c(CC)nc([N+](=O)[O-])c1S(=O)(=O)c1ccccc1
    0.0%, ?, -2%, 2
CCc1cccc(C)c1NC(=S)NCCc1c(C)[nH]c2ccc(C)cc12
    -3.1%, 22%, -13%, -9
CCN(C(=O)c1cnc2scc(C)n2c1=O)c1ccccc1C
    -0.1%, -4%, 8%, 11

# Some values from the entries so far.
# GLA inh pH 4.5 with `CC(=O)Nc1ccc2nc3ccccc3nc2c1` reads -1
# Rango release inh with `COc1cc(OC)cc(-c2sc3ccc(OC)cc3c2-c2ccc(OCCN3CCCCC3)cc2)c1` reads 0%
# Rango release inh with `C[C@@H]1CN([C@@H](C)CO)C(=O)Cc2cc(NC(=O)Nc3ccc(F)cc3)ccc2O[C@@H]1CN(C)Cc1ccc(Cl)c(Cl)c1` reads -12%
# Rango release inh with `CCOc1ccc(S(=O)(=O)Nc2c(C)n(C)n(-c3ccccc3)c2=O)cc1` reads -22%

# Following part.
# Sequence of screens: Rango complex inh, miR-21 reporter, Rango release inh, GLA inh pH 4.5
Cc1ccc(Cl)cc1N1CCN(S(=O)(=O)c2cnc[nH]2)CC1
    -1.4%, -12%, 0%, 5
CC(Sc1ccccc1)C(=O)Nc1cccc(N(C)S(C)(=O)=O)c1 (stereo unspecified)
    1.6%, -11%, 0%, 1
COc1ccc(C(=O)NNC(=O)c2ccc3ccccc3c2)cc1
    -1.7%, nt, 6%, nt
CCO[C@@H]1OC(C(=O)N2CCOCC2)=C[C@H](C)[C@H]1CCCO
    2.6%, -2%, 8%, -2
Cc1ccc(NC(=O)C2CCN(S(=O)(=O)c3ccc4c(c3)CCCC(=O)N4)CC2)c(Br)c1
    -3.3%, 3%&1%, 14%, nt
Nc1nc(N)nc(-c2cc([N+](=O)[O-])ccc2O)n1
    0.1%, nt, -10%, nt
Cc1nn(CC(=O)N2CCc3ccccc3C2)c(C)c1[N+](=O)[O-]
    0.6%, -1%, 0%, -11
CCCCN1C(=O)C(=O)N(CC(=O)Nc2ccc(C(N)=O)cc2)C1=O
    -0.1%, nt, 7%, nt
O=C(Nc1cc(Cl)ccc1O)c1snnc1-c1ccccc1
    -1.6%, 25%, 14%, -3
CCOc1ccc(NC(=O)N(C2CCCCCC2)C2CCN(C(C)=O)CC2)cc1
    -0.1%, -7%, 0%, 1
CCOC(=O)c1cc(NC(=O)c2ccccc2)c(=O)oc1-c1ccccc1
    ?, 3%, 1%, 6
O=C(c1ccc(NS(=O)(=O)c2ccccc2)cc1)N1CCCCCC1
    1.8%, 1%, 2%, nt
O=C(CC1(O)C(=O)Nc2ccccc21)c1ccccc1O (stereo unspecified)
    -0.6%, 0%, -5%, -3
O=C(NC(C(=O)c1ccccc1)N1CCOCC1)c1ccccc1 (stereo unspecified)
    -0.7%, -33%, -2%, -1
COCCn1c(C)cc(C(=O)COC(=O)c2[nH]c(C)c(C(C)=O)c2C)c1C
    -1.3%, nt, -2%, nt
COc1ccc(S(=O)(=O)Nc2ncccc2C)c2ccccc12
    -2.0%, -4%, -10%, nt
O=C(Cn1cc(C(F)(F)F)cc(Cl)c1=O)Nc1cccc(Cl)c1
    1.1%, -5%, 26%, 3
O=C(Nc1ccccc1)C1=C[C@H](c2ccc(Br)cc2)C[C@H](OCc2ccc(CO)cc2)O1
    3.2%, -30%, 2%, -11
Cc1oc(-c2ccccc2Cl)cc1-c1nn2c(-c3ccco3)nnc2s1
    nt, -38%, nt, -1
Cc1cc(=O)oc2cc(OC(C)C(=O)Nc3nccs3)ccc12 (stereo unspecified)
    -2.3%, -3%, 12%, -4
Cc1nc(Sc2nnnn2C)c2c3c(sc2n1)CCC3
    -1.3%, 6%, -12%, 3
CC(C)Sc1nnc([C@H](Cc2ccccc2)NC(=O)OC(C)(C)C)o1
    2.5%, 0%, ?, 1
CCOC(=O)C1=NN(C(=O)COc2ccccc2)C(O)(c2ccc(Br)cc2)C1 (stereo unspecified)
    -6.7%, 0%, -23%, -8
Cc1cccc(OCc2nnc(N)s2)c1
    -6.6%, -10%, -1%, -2
Cc1cc(C)nc(NS(=O)(=O)c2ccc(NS(=O)(=O)c3ccsc3)cc2)n1
    -2.7%, 1%, -2%, 3
COc1cc(C(=O)NCc2cccc3ccccc23)ccc1OCc1ccccc1
    ?, -9%, -3%, -3
CCOc1ccc(N2C(=O)CC(n3ccc(C)n3)C2=O)cc1 (stereo unspecified)
    0.0%, 0%, 13%, 4
COc1cc(C(=O)N2CCN(C/C=C/c3ccccc3)CC2)cc(OC)c1C
    2.7%, 0%, -8%, -23
O=C(CN1C(=O)NC2(CCCCC2)C1=O)NCc1ccc2c(c1)OCO2
    -2.4%, 2%, -2%, 12
O=C(CSc1n[nH]c(=O)[nH]c1=O)NC1CC1
    -0.8%, 0%, 0%, 2
COc1ccc(-c2nc(C#N)c(N3CCCCCC3)o2)cc1
    4.2%, -19%, -1%, 18
CN(CC(=O)Nc1ccccc1C(F)(F)F)C(=O)c1ccc(N2C(=O)CCC2=O)cc1
    -2.3%, nt, 0%, nt
C[n+]1cc(C(=O)N2CCCCC2)ccc1/C=C/c1c[nH]c2ccccc12
    ?, 3%, ?, -14
Cc1ccc(N2C(=O)CC3(CCCC3)CC2=O)cc1
    1.5%, -3%, -6%, 2
CN(C(=O)COC(=O)CSc1ccc(C(N)=O)cc1[N+](=O)[O-])C1CCCCC1
    -2.0%, nt, 7%, nt
O=C(Nc1nc2c(ccc3ccccc32)s1)c1cc([N+](=O)[O-])ccc1N1CCOCC1
    nt, -51%, nt, -7
c1ccc(Oc2cnc3ccccc3n2)cc1
    -1.8%, -12%, 4%, -3
COc1ccccc1NC(=O)NC1(C)CCS(=O)(=O)C1 (stereo unspecified)
    -2.9%, 0%, 6%, nt
Cc1cc(C)nc(N2CCC(C(=O)N3CCN(c4cc(Cl)ccc4C)CC3)CC2)n1
    0.2%, 14%, 12%, 7
CCCn1c(NC(=O)C2CCN(C(=O)c3ccc(F)cc3)CC2)nc2ccccc21
    ?, 4%, 3%, nt

# From PubChem
